D2 agonist: Beta-Arrestin HTS for Positive Allosteric Modulators of the Human D2 Dopamine Receptor: Agonists | AID 624465, 2012 | DiscoveRx PathHunter D2 beta-arrestin, luminescence, 90 min; 100% = 57 uM dopamine signal | D(2) dopamine receptor (Homo sapiens), P14416 | 360,000 compounds, 0.084% hits | activation, % (no concentration beside the values); in the data active = activation above about 40%; inconclusive = about 15% to 40%; inactive = below about 15%; note: compound concentration not given in the record; the text of the record calls up to 30% inactive
Target sequence (P14416 whole entry, looked up): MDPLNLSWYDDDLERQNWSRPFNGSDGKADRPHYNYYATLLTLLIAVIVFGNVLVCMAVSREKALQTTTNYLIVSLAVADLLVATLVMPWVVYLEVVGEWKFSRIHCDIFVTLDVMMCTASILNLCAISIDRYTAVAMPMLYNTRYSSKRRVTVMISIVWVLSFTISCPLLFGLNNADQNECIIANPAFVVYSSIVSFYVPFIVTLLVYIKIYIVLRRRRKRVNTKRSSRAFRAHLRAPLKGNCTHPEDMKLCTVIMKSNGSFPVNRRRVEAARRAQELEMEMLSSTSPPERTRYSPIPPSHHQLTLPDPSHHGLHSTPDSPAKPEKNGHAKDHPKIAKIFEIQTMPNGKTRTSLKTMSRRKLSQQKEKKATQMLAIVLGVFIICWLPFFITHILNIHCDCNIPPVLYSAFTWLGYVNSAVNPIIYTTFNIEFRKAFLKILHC
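Agonist mode: compounds alone added to overnight-plated D2 PathHunter cells for 90 min at 37 C, with 57 uM final dopamine (EC100) defining full response. Beta-arrestin recruitment detected by chemiluminescent reagent, read after 1 h at ambient temperature.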
TRPML1 ag: qHTS for Agonists of the Human Mucolipin Transient Receptor Potential 1 (TRPML1); AID 624414, 2012; TRPML1-expressing cells, Ca2+ dye fluorescence, FDSS; host cell line not named in the record; reference of the full effect not given here; Mucolipin-1 (Homo sapiens), Q9GZU1; 410,000 compounds, 0.12% hits; activation, % (concentration not given with the values); in the data active = activation above about 50%; inconclusive = about 30% to 50%; inactive = below about 30%; note: 0% is about no effect; the text of the record puts the active cut at 80%
Target sequence (Q9GZU1 whole entry, looked up): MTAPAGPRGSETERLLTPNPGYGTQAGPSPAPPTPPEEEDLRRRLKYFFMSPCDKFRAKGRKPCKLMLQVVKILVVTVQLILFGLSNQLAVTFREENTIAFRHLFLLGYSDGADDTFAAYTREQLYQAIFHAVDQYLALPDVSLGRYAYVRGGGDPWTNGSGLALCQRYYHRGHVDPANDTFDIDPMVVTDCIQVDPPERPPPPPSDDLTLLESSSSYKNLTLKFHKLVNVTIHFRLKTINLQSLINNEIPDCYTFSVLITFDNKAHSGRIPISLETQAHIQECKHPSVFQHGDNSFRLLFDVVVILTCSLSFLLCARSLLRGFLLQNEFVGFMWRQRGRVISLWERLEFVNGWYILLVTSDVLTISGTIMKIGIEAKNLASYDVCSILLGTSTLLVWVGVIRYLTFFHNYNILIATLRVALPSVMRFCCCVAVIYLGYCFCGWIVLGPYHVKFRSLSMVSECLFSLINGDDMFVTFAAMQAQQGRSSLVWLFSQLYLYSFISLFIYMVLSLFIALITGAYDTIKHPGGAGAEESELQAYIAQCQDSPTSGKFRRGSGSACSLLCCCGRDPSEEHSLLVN
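Tet-induced TRPML1-DL cells, 1,500 per well, cultured overnight, were loaded with a no-wash Ca2+ dye for 45–90 min. Calcium fluorescence was recorded on the FDSS for 110 s after compound addition, before the EC80 agonist (4 uM 54-4) was added.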
TRPML1 inh: qHTS for Inhibitors of the Human Mucolipin Transient Receptor Potential 1 (TRPML1) | TRPML1-inducible cells, Ca2+ dye fluorescence, FDSS; hits give low values; inhibition of EC80 agonist-evoked calcium signal | activity change, negative = inhibition, % (test concentration not listed) | 390,000 compounds, 0.02% hits; in the data active means activity change below about -50%; inconclusive means about -30% to -50%; inactive means above about -30%;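 note: stimulus is agonist 54-4 at its EC80 concentration; % is set by controls: 0 for no effect and ±100 for the full control effect; compound concentration not given in the record; the text of the record puts the active cut at -80%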
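TRPML1-DL cells, Tet-induced overnight (~16 h, 37 °C) at 1,500 cells/well, were loaded with Ca8 no-wash dye plus quencher for 45-90 min at room temperature. Compounds were pinned during FDSS kinetic reading; agonist 54-4 at EC80 (4 uM final) then added.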
D2 PAM: Beta-Arrestin HTS for Positive Allosteric Modulators of the Human D2 Dopamine Receptor: Potentiators. potentiation, % (no concentration beside the values). 360,000 compounds, 0.23% hits. D(2) dopamine receptor (Homo sapiens), P14416. DiscoveRx D2 beta-arrestin cells, luminescence, 90 min; 100% = 57 uM dopamine signal; active = potentiation of 50% or more; inconclusive = 30% to 50%; inactive = 30% or less;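 note: compound concentration not given in the record; tested on top of an EC20 dose of dopamine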
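PathHunter beta-arrestin assay in DiscoveRx D2 cells. Compounds were added with an EC20 of dopamine (50 nM final) for 90 min at 37 deg C. Luminescence was read 1 h after detection reagent, with 57 uM dopamine as the EC100 control.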
Six1-Eya2 inh: qHTS Assay for Inhibitors of the Six1/Eya2 Interaction | 360,000 compounds, 0.56% hits | AlphaScreen GST-Six1/His-Eya2 binding, biochemical; hits give low values; control for the full effect not named in the record | AID 651725, 2012 | Homeobox protein SIX1 (Homo sapiens) + Protein phosphatase EYA2 (Homo sapiens), … | activity change, % (test concentration not listed); in the data active = activity change below about -65%; inconclusive = about -30% to -65%; inactive = above about -30%; note: % is set by controls: 0 for no effect and ±100 for the full control effect
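Compounds are tested against tagged Six1 and Eya2 proteins bridged by glutathione donor and nickel acceptor beads; after a one-hour incubation at 37 °C without light, AlphaScreen emission is recorded.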
PINK1 modulator: A Quantitative High throughput Screen to Identify Chemical Modulators of PINK1 Expression; 410,000 compounds, 0.2% hits; Potency, µM (titrated, usually from 76.6 µM), without a hit: top-dose activation (PINK1 increase), most hits filed as activators; AID 624263, 2012; PINK1 immunofluorescence, high-content cytometry, 24 h; active = well fitted activation curve with a large enough effect; inconclusive = small, poorly fitted or top-dose-only effect; inactive = flat fitted curve, though single readings scatter; cell line not stated here;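 note: potency is the fitted concentration of half-maximal effect; % of control where 0% means no effect; nearly all actives have a fitted effect of over 65% in size; a mitochondrial uncoupler was the plate control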
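Measures PINK1 amount and localization on or inside mitochondria by immunofluorescence. Stable cells get compounds at 5 concentrations for 24 hours before fixation and staining; CCCP controls included.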
* marks the source's active call; other numbers are inactive results; [ ] = another dose, or the depositor's remark.

`NC(Cc1ccc(C(F)(F)F)cc1)c1csc(NC(=O)Nc2ccccc2Cc2ccccc2)n1` (stereo unspecified) gave D2 agonist inconclusive, TRPML1 ag 0.0, D2 PAM 9.9, Six1-Eya2 inh -1.6 and PINK1 modulator -1.3%.
For [O-][n+]1ccc(CC(O)(C(F)(F)F)C(F)(F)F)cc1 the results were D2 agonist -7.2, TRPML1 ag 0.2, TRPML1 inh -28.7, D2 PAM -12.0, Six1-Eya2 inh 9.5 and PINK1 modulator 1.8%.
Screening CC(C)(C)c1cc(NC(=O)Nc2ccccc2)no1 returned D2 agonist -3.0, D2 PAM -4.9, Six1-Eya2 inh -1.7 and PINK1 modulator 4.9%.
For COc1ccccc1C(=O)Nc1ccc(S(=O)(=O)N2CCOCC2)cc1 the results were D2 agonist 0.1, TRPML1 ag -0.3, TRPML1 inh -8.1, D2 PAM -19.1, Six1-Eya2 inh -9.2 and PINK1 modulator 3.2%.
Screening CCCn1nc(C(=O)OCC(=O)NC(C)c2ccccc2)c2ccccc2c1=O (stereo unspecified) returned D2 agonist -1.6, TRPML1 ag 0.6, TRPML1 inh 27.5, D2 PAM -9.6, Six1-Eya2 inh -6.2 and PINK1 modulator 0.5%.
For COc1cc(NC(=O)CN2CCN(S(=O)(=O)/C=C/c3ccccc3)CC2)cc(OC)c1OC the results were D2 agonist -3.0, TRPML1 ag -0.4, TRPML1 inh -0.6, D2 PAM -1.7, Six1-Eya2 inh -16.7 and PINK1 modulator 0.4%.
Screening COc1ccc(C2=NN(C(=O)COC(=O)c3ccc(NC(=O)CC#N)cc3)C(c3ccco3)C2)cc1 (stereo unspecified) returned D2 agonist -2.4, TRPML1 ag 0.1, TRPML1 inh 3.1, D2 PAM -4.8, Six1-Eya2 inh -3.9 and PINK1 modulator 0.7%.
For O=C(CN1CCN(Cc2ccc(F)cc2Cl)CC1)NCc1ccccc1 the results were D2 agonist -3.4, TRPML1 ag -0.4, TRPML1 inh 6.6, D2 PAM -1.9, Six1-Eya2 inh 3.2 and PINK1 modulator 0.8%.
COC(=O)c1c(C)[nH]c(C)c1-c1ccc([N+](=O)[O-])cc1 was read as D2 agonist -4.5, TRPML1 ag 0.4, TRPML1 inh 2.8, D2 PAM -9.4, Six1-Eya2 inh 8.1 and PINK1 modulator 1.4%.
Screening COc1ccc(C2CC(=O)c3cc(-c4nc(-c5cccc(Cl)c5)cs4)c(=O)[nH]c3C2)cc1OC (stereo unspecified) returned TRPML1 ag 1.4, TRPML1 inh 2.4 and PINK1 modulator -0.5%.
O=C(O)c1cccc(S(=O)(=O)Nc2ccc(Cc3ccncc3)cc2)c1 was read as D2 agonist 1.4, TRPML1 ag 3.8, TRPML1 inh 0.1, D2 PAM -4.0, Six1-Eya2 inh 1.7 and PINK1 modulator 0.1%.
`CC1CCCN(CC(=O)NNC(=O)COc2ccc(Br)cc2)C1` (stereo unspecified) gave D2 agonist -3.4, TRPML1 ag 1.4, TRPML1 inh -19.6, D2 PAM -16.2, Six1-Eya2 inh -20.1 and PINK1 modulator -0.5%.
Screening COc1ccc(N2CCN(c3nc4c(C)cccn4c(=O)c3C=C(C#N)C#N)CC2)cc1 returned D2 agonist 3.6, TRPML1 ag -0.7, TRPML1 inh -0.2, D2 PAM 6.7, Six1-Eya2 inh -3.6 and PINK1 modulator 0.0%.
`CCC(=O)C1CCCN(C(=O)CCc2nnc(-c3ccc(C(C)=O)s3)o2)C1` (stereo unspecified) gave D2 agonist 2.3, TRPML1 ag -0.2, TRPML1 inh 4.4, D2 PAM -11.6, Six1-Eya2 inh -0.2 and PINK1 modulator -0.3%.
`COc1ccc(-c2cn3c(n2)CCC3)cc1` gave D2 agonist -0.2, TRPML1 ag 0.1, TRPML1 inh 1.0, D2 PAM -12.0, Six1-Eya2 inh -4.6 and PINK1 modulator 0.6%.
Screening C=CCCC(=O)N1CCC(n2nccc2NC(=O)c2ccc(OC)cc2)CC1 returned D2 agonist -1.1, TRPML1 ag 0.2, TRPML1 inh -3.7, D2 PAM -3.9, Six1-Eya2 inh 1.5 and PINK1 modulator -0.6%.
`Cc1cccc(C)c1NC(=S)N(CCc1ccncc1)C(C)C` gave D2 agonist 2.4, TRPML1 ag -0.7, TRPML1 inh 2.1, D2 PAM -4.6, Six1-Eya2 inh 3.6 and PINK1 modulator 1.1%.
Screening O=C(CSc1ccc2nnc(-c3ccncc3)n2n1)Nc1ccccc1F returned D2 agonist 1.4, TRPML1 ag -0.5, TRPML1 inh 3.0, D2 PAM 0.1, Six1-Eya2 inh inconclusive and PINK1 modulator 0.5%.
For O=C(Nc1ccc(S(=O)(=O)NCc2ccccc2)cc1)c1ccccc1[N+](=O)[O-] the results were D2 agonist 2.6, TRPML1 ag 1.0, TRPML1 inh -18.9, D2 PAM -22.2, Six1-Eya2 inh -8.5 and PINK1 modulator -1.1%.
Screening Cc1cc(N2CCOCC2)ccc1/C=C1/SC(=O)NC1=O returned D2 agonist -3.8, TRPML1 ag 2.6, TRPML1 inh -4.4, D2 PAM -8.0, Six1-Eya2 inh 8.5 and PINK1 modulator -1.4%.
For CC1=C(C(=O)N(C(C)C)C(C)C)CC(CC(=O)NCc2cccs2)C(=O)N1Cc1ccc(F)cc1 (stereo unspecified) the results were D2 agonist -4.3, TRPML1 ag 1.3, TRPML1 inh 24.2, D2 PAM -2.9, Six1-Eya2 inh 12.7 and PINK1 modulator -0.1%.
For COc1ccc(CCNC(=O)COC(=O)c2ccc(F)c(S(=O)(=O)N3CCOCC3)c2)cc1 the results were D2 agonist 5.5, TRPML1 ag 0.4, TRPML1 inh -1.3, D2 PAM -4.8, Six1-Eya2 inh 8.9 and PINK1 modulator 0.2%.
`COc1ccc(C2=NN(C(=O)CSc3nccn3C)C(c3ccco3)C2)cc1` (stereo unspecified) gave D2 agonist 3.7, TRPML1 ag -0.3, TRPML1 inh 0.7, D2 PAM -2.0, Six1-Eya2 inh -10.9 and PINK1 modulator 0.1%.
Screening Cc1ccc(-c2nnc(N3CC(C)OC(C)C3)c3ccccc23)cc1 (stereo unspecified) returned D2 agonist -3.0, TRPML1 ag 1.4, TRPML1 inh 27.3, D2 PAM -7.4, Six1-Eya2 inh -2.8 and PINK1 modulator 1.8%.
Screening O=C(COc1ccc2c(-c3ccccc3)cc(=O)oc2c1)N[C@H](Cc1c[nH]c2ccccc12)C(=O)O returned D2 agonist -6.1, D2 PAM -8.0, Six1-Eya2 inh -16.3 and PINK1 modulator -1.1%.
For COc1cccc(N2C(=O)C(CC(=O)Nc3ccc(F)cc3)N(CCC3=CCCCC3)C2=O)c1 (stereo unspecified) the results were TRPML1 ag 2.8, TRPML1 inh -9.1 and PINK1 modulator 3.1%.
`CCCCc1ccc(NC(=S)NCCc2ccc(S(N)(=O)=O)cc2)cc1` gave D2 agonist 5.4, TRPML1 ag 0.0, TRPML1 inh -3.2, D2 PAM -6.8, Six1-Eya2 inh -1.3 and PINK1 modulator 3.1%.
Screening O=C(NC1CCCCCC1)C1CCN(C(=O)c2ccc(Cl)cc2)CC1 returned D2 agonist -2.7, TRPML1 ag -0.1, TRPML1 inh 6.4, D2 PAM -9.5, Six1-Eya2 inh 0.0 and PINK1 modulator -0.7%.
For Fc1ccc(C2CC(c3ccco3)n3ncnc3N2)cc1 (stereo unspecified) the results were D2 agonist -1.5, TRPML1 ag 0.0, TRPML1 inh -7.2, D2 PAM -6.4, Six1-Eya2 inh -12.0 and PINK1 modulator -4.3%.
Screening Cn1c(=O)oc2cc(S(=O)(=O)Nc3ccc(Cl)cc3)ccc21 returned D2 agonist 2.6, TRPML1 ag 0.5, TRPML1 inh -3.4, D2 PAM -5.3, Six1-Eya2 inh 3.0 and PINK1 modulator 1.9%.
COc1ccc(-c2nc3ccccc3n3c(-c4ccccc4)c4c(=O)n(C)c(=O)n(C)c4c23)cc1 was read as TRPML1 ag -0.9, TRPML1 inh 7.6 and PINK1 modulator 2.5%.
Screening CCOC(=O)c1nc2nc(C)cc(=O)n2[nH]1 returned D2 agonist -2.8, TRPML1 ag -0.7, TRPML1 inh 0.2, D2 PAM -2.1, Six1-Eya2 inh 6.4 and PINK1 modulator -1.1%[38.3 µM].
Screening C=CCc1c(C)nc(-c2ccccc2)nc1N/N=C(\C)c1ccccc1 returned D2 agonist -5.6, TRPML1 ag 1.2, TRPML1 inh 5.7, D2 PAM -29.8, Six1-Eya2 inh 6.0 and PINK1 modulator -0.5%.
For O=C1CCCN1c1ccc(S(=O)(=O)N2CCC(c3ccccc3)CC2)cc1 the results were D2 agonist 1.4, TRPML1 ag -0.6, TRPML1 inh -2.1, D2 PAM -7.0, Six1-Eya2 inh 3.4 and PINK1 modulator 12.0%[38.3 µM].
Screening Cc1ccc(NC(=O)CSc2n[nH]c(-c3ccccn3)n2)cc1 returned D2 agonist -3.2, TRPML1 ag 0.1, TRPML1 inh 3.1, D2 PAM 0.5, Six1-Eya2 inh -77.4* and PINK1 modulator -0.9%.
`CCOC(=O)C1CCCN(C(=O)C2CCCN(S(=O)(=O)c3ccc4c(c3)oc(=O)n4C)C2)C1` (stereo unspecified) gave D2 agonist -2.5, TRPML1 ag -0.7, TRPML1 inh -4.9, D2 PAM -3.8, Six1-Eya2 inh 1.2 and PINK1 modulator -0.7%.
For CC1CCN(C(=O)CCc2nnc3ccc(NCc4ccco4)nn23)CC1 the results were D2 agonist -3.6, TRPML1 ag -0.4, TRPML1 inh 1.1, D2 PAM -5.5, Six1-Eya2 inh -3.7 and PINK1 modulator 2.7%.
`CCOC(=O)[C@@H]1[C@H]2COc3ccccc3[C@H]2N2C(=O)N(c3cccc(Cl)c3)C(=O)[C@@]12C` gave D2 agonist 4.0, TRPML1 ag 3.2, TRPML1 inh 63.1, D2 PAM -0.7, Six1-Eya2 inh 6.3 and PINK1 modulator 1.3%.
For CCOC(=O)c1c(NC2OC(=O)c3c2ccc(OC)c3OC)sc(C(=O)OC(C)(C)C)c1C (stereo unspecified) the results were D2 agonist 1.2, TRPML1 ag 0.9, TRPML1 inh -15.6, D2 PAM -4.0, Six1-Eya2 inh 3.8 and PINK1 modulator 1.0%.

Molecules above with a cyano group, in the order listed:
Screening COc1ccc(C2=NN(C(=O)COC(=O)c3ccc(NC(=O)CC#N)cc3)C(c3ccco3)C2)cc1 (stereo unspecified) returned D2 agonist -2.4, TRPML1 ag 0.1, TRPML1 inh 3.1, D2 PAM -4.8, Six1-Eya2 inh -3.9 and PINK1 modulator 0.7%.
Screening COc1ccc(N2CCN(c3nc4c(C)cccn4c(=O)c3C=C(C#N)C#N)CC2)cc1 returned D2 agonist 3.6, TRPML1 ag -0.7, TRPML1 inh -0.2, D2 PAM 6.7, Six1-Eya2 inh -3.6 and PINK1 modulator 0.0%.
